Source: PubChem (PCMD)
Biofilm kill mix: mixtures killing C. albicans biofilm; C. albicans biofilm persisters + clotrimazole, fluorescence viability; primary screen in compound mixtures of four per well; inhibition, % at 7.6 µM; actives 0.02% (n = 120,000); AID 1242;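 active = inhibition above 30.3% in the primary screen of four-compound pools, then above 30% when the compound was retested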;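 also: compounds exposed to preformed 24 h biofilms for 48 h; the number belongs to the whole pool; some results filed as inactive read as strong as hits; inactives centre near 12; 0% = biofilm with clotrimazole alone and 100% = kill control; retested singly at about 60 µM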
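Assay system: C. albicans biofilms / Medium: RPMI/MOPS medium, pH 7.0 / Schedule: biofilm formation 24 h, compound exposure 48 h, 37 °C / Measured by: Alamar Blue fluorescence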
Active calls of the source: *.

smiles	Biofilm kill mix
C=C1CCN([C@H](C(=O)NCc2ccco2)C(C)C)S(=O)(=O)c2ccccc21	7
CCOC(=O)N1CCN(S(=O)(=O)c2ccc(C(=O)Nc3nnc(CC)o3)cc2)CC1	10
O=C(Nc1ccc(N2CCCCCC2)cc1)c1ccccc1Cl	14
Cc1cc(-c2nc3cccnc3s2)ccc1NS(=O)(=O)c1cccs1	13
O=C(O)CSc1c2c(nc3cc(C(=O)N4CCCC4)ccc13)CCCC2	8
CC(C)C(=O)NC(c1ccc(N(C)C)cc1)c1c(O)ccc2ccccc12 (stereo not given)	34
Cc1cccc(NC(=O)CSc2nnc(CCNC(=O)OC(C)(C)C)o2)c1C	15
COc1ccc(CN(C)CC(=O)NC(=O)NCc2ccccc2)c(OC)c1	20
COc1ccc(-n2nc([N+](=O)[O-])c(=NCCc3cccc(C)c3)n2O)cc1	3
CC(C)CC1c2[nH]c3ccccc3c2CCN1C(=O)c1cnccn1 (stereo not given)	3
O=C(COC(=O)CNS(=O)(=O)c1c(Cl)cccc1Cl)Nc1cccnc1Cl	14
CCN(CC)c1ccc(C2NCC(c3ccc([N+](=O)[O-])cc3)O2)cc1 (stereo not given)	13
O=C(c1ccc(Cl)cc1)c1c[nH]cc1-c1ccccc1	15
CN(C)C=Nc1ccc(Cl)c(Cl)c1	16
COc1c(C)cc(C(=O)C2CCCN(S(=O)(=O)c3c(C)noc3C)C2)cc1C (stereo not given)	2
N#C/C(=C\c1cccs1)C(=O)NCc1ccco1	17
COc1ccc(Cc2noc(CN(C)C3CC(C)(C)NC(C)(C)C3)n2)cc1OC	-2
S=C(Nc1ccccc1)N1CCC(C2CCN(C(=S)Nc3ccccc3)CC2)CC1	5
O=C(CN1C(=O)NC2(CCCC2)C1=O)Nc1ccccc1-c1ccccc1	18
CCCC/C(O)=N\S(=O)(=O)c1ccc(N=NN(C)C)cc1	12
COCCOC(=O)c1c(NC(=O)CSc2cccc[n+]2[O-])sc(C(N)=O)c1C	4
O=C(NCc1ccccc1)NC(O)C(Cl)(Cl)Cl (stereo not given)	26
COC(=O)C1CCN(Cc2ccc(OCCCN3CCN(c4ccc([N+](=O)[O-])cc4)CC3)cc2)CC1	7
O=C(/C=C/c1cccs1)N1CCC2(CC1)Oc1ccc(F)cc1C(=O)C21CC(c2ccc(Cl)cc2)=NO1 (stereo not given)	0
O=C(O)c1cccc(N/N=C/c2cccnc2)c1	5
CNC(=S)NCCc1ccc(OC)cc1	6
CNS(=O)(=O)c1ccc(C(C)(C)C)cc1	21
CC(C)Sc1nc2ccc(N3C(=O)C4CCCCC4C3=O)cc2s1 (stereo not given)	-7
O=C(CSc1ccc(-c2ccncc2)nn1)N1CCCC1	12
O=C(COc1ccc(Cl)cc1)NCc1cn2cc(Cl)ccc2n1	22
CC(=O)c1ccc(NC(=S)NC(C)c2ccc(Cl)cc2Cl)cc1 (stereo not given)	18
O=c1cc(-c2ccc([N+](=O)[O-])cc2)nc2cc(-c3ccc(Cl)cc3)[nH]n12	11
CCS(=O)(=O)c1nc2ccccc2n1Cc1ccccn1	25
Cc1ccc(C2=C(c3ccc([N+](=O)[O-])cc3)C(=O)OC2)cc1C	15
CCOC(=O)N1CCN(Cc2nc(Cc3cccc(C(F)(F)F)c3)no2)CC1	-6
CC(C)C(C)NC(=O)COc1ccc(OCc2ccccc2)cc1 (stereo not given)	15
O=C(CN1CCCCCC1)NCCN1C(=O)S/C(=C\c2ccccc2Cl)C1=O	-2
Cc1cc(=O)n2c(C(=O)Nc3ccc(C)c(C)c3)c(C(=O)Nc3ccccc3)sc2n1	17
Cc1c(Cl)cccc1NC(=O)CSc1nc2c(c(=O)[nH]1)CCCC2	14
O=C(c1cc([N+](=O)[O-])ccc1N1CCCC1)N1CCCC1	9
O=C(N/N=C/C(Cl)=C\c1ccccc1)c1cccs1	24
COc1cccc(CC2(CO)CCCN(Cc3ccc4c(c3)OCCO4)C2)c1 (stereo not given)	21
CC1Oc2ccccc2C=C1/C=N/NC(=O)[C@@H](C)NC(=O)OC(C)(C)C (stereo not given in full)	22
COc1ccc(-c2cc(C3CC3)nc(SCC(=O)c3cccs3)c2C#N)cc1	17
C/C(=N\NC(=S)Nc1c(C)cccc1C)c1ccc(O)cc1	19
O=C(NCc1ccccc1)Nc1cccn(Cc2ccc(Cl)cc2)c1=O	7
O=C(Nc1nccs1)c1ccc(-c2ccc([N+](=O)[O-])cc2)o1	14
O=C(Nc1cccc(-c2cc3ccccc3oc2=O)c1)c1ccc(Br)o1	11
CN(C)N1C(N)=C(C#N)C(c2cccnc2)C2=C1CCCC2=O (stereo not given)	11
CCn1nnc2c(=O)oc3ccccc3c21	6
Cn1c(=O)[nH]c(=O)c2c1nc1n2CC(COc2ccc3ccccc3c2)O1 (stereo not given)	15
Fc1ccc(-c2csc3[n+]2CCS3)cc1	11
Cc1ccc(S(=O)(=O)CCC(=O)OCc2ccc(S(=O)(=O)C(C)C)cc2)cc1	-18
O=c1c(-c2ccco2)[n+]([O-])c2ccccc2n1OCc1c(F)cccc1F	16
C=C(C)CNC(=S)N/N=C/c1ccc(NC(C)=O)cc1	24
Cc1ccc(NC(=O)CN2C(=O)S/C(=C\c3cccn3-c3cccc(C(=O)O)c3)C2=O)cc1C	7
O=C(COc1ccc(C(=O)c2ccc(F)cc2)cc1)NCc1ccc(F)cc1	20
Cc1c(Cl)cccc1NC(=S)NCC(C)C	18
OC(CCN1CCC2(CC1)OCCO2)C(F)(F)F (stereo not given)	21
Cc1cc(C(=O)N2CCCC(C(=O)c3cc(F)ccc3F)C2)c(C)o1 (stereo not given)	-2

New compounds follow.
smiles	Biofilm kill mix
Cc1nc2ccc(NC(=O)NC(=O)c3c(Cl)cccc3Cl)cc2o1	35
COc1cccc(OC)c1C(=O)NNC(=O)c1ccccc1-n1cccc1	12
COc1cc(NS(=O)(=O)c2ccc(NC(=S)NC(=O)COc3ccccc3OC)cc2)nc(OC)n1	8
COc1ccc(Cl)cc1N/C(N)=N/c1nc(C)cc(C)n1	24
CC(=O)C(C)Oc1ccc(Cc2ncc(C(F)(F)F)cc2Cl)cc1 (stereo not given)	10
N#CNC(=Nc1cccc(Cl)c1)Oc1ccccc1	18
CCN(CC)S(=O)(=O)c1cc(NC(=O)C(C)OC(=O)c2[nH]c(C)c(C(C)=O)c2C)ccc1C (stereo not given)	11
COc1ccc(CCNC(=O)c2cc(=O)n(C)c(=O)n2C)cc1OC	10
COc1ccc(NS(=O)(=O)c2cccc(NC(=O)c3cnccn3)c2)cc1Br	-3
Cc1ccc(NC(=O)CN(C)C(=O)/C=C/c2cccc(F)c2)cc1	12
COc1ccc(C(NC(=O)/C=C/c2ccco2)c2ccc(OC)cc2)cc1	7
Cc1ccccc1SCC(=O)Nc1ccc(N2CCOCC2)cc1	26
O=C(O)CSCC(=O)Nc1ccccn1	20
O=S(=O)(Cc1cc(-c2ccccc2)no1)c1ccccc1	9
FC(F)(F)c1cccc(N2CCN(C(=S)NCC3CCCO3)CC2)c1 (stereo not given)	12

The list goes on (five carried over from the part before).
smiles	Biofilm kill mix
COc1ccc(C(NC(=O)/C=C/c2ccco2)c2ccc(OC)cc2)cc1	7
Cc1ccccc1SCC(=O)Nc1ccc(N2CCOCC2)cc1	26
O=C(O)CSCC(=O)Nc1ccccn1	20
O=S(=O)(Cc1cc(-c2ccccc2)no1)c1ccccc1	9
FC(F)(F)c1cccc(N2CCN(C(=S)NCC3CCCO3)CC2)c1 (stereo not given)	12
Cc1ccc(S(=O)(=O)N2CCCC2)cc1[N+](=O)[O-]	3
O=C(NCCc1c[nH]c2ccccc12)/C(=C\c1cccnc1)NC(=O)c1ccccc1F	24
Cc1cc(=O)[nH]c(SCC(=O)N(CCC#N)c2ccccc2)c1C#N	16
O=C(/C=C/c1ccccc1)NC(=O)c1ccccc1O	22
O=C(NCCc1cccs1)c1ccc(Cl)c(Cl)c1	8
CCn1c(C)nc2cc(C(=O)NNC(=O)CCC3CCCC3)ccc21	17
Cc1ccc(-c2n[nH]c(=O)c3ccccc23)cc1S(=O)(=O)Nc1ccc(F)cc1	24
Cc1ccccc1C(=O)NCC(=O)Nc1ccccc1C(F)(F)F	-2
N#Cc1ccc(N2C(=O)[C@@H]3C(C(=O)C(c4ccccc4)c4ccccc4)=NN[C@@H]3C2=O)cc1	15
COc1ccc(CN2C(=O)Cc3c2nc(N)c2c(N)nc(N4CCOCC4)c(C#N)c32)cc1	18
CNC(=O)COC(=O)c1ccc(NS(=O)(=O)c2ccc3c(c2)OCCO3)cc1	19
Fc1cccc(NC(=S)NNc2c3ccccc3nc3ccccc23)c1	0
c1ccc(CSc2ccc(-c3ccccn3)nn2)nc1	13
CNC(=O)C(C)c1ncc(C(F)(F)F)cc1Cl (stereo not given)	14
CC1CC1C(=O)NCCc1ccc(Cl)cc1 (stereo not given)	1
COc1cc2c(cc1NC(=O)c1cc(-c3ccncc3)nc3ccccc13)oc1ccccc12	6
O=C(CCCN1C(=O)c2ccccc2C1=O)Nc1cccnc1	12
COC(CNC(=O)C1CCCCC1C(=O)O)OC (stereo not given)	5
Cc1cc(C(=O)COc2cccnc2[N+](=O)[O-])c(C)n1Cc1ccco1	27
Cc1ccccc1OCC(=O)NNC(=O)CN1C(=O)c2ccccc2C1=O	3
CC1=CC(C2CC(=O)N(c3ccc(C)cc3)C2=O)CC2C(=O)N(c3ccc(C)cc3)C(=O)C12 (stereo not given)	14
Cc1ccc(NC(=O)CN(C)C(=O)CCC(=O)c2cccs2)cc1	14
COc1cc(C(=O)Nc2ccc(C(=O)O)cc2)ccc1OC(C)=O	15
CCCOc1cccc(C(=O)NC(=S)Nc2cccc(NC(=O)c3ccccc3Cl)c2)c1	21
CCOC(=O)c1ccc(NC(=O)c2nc[nH]c2C(=O)N[C@H](C)c2ccccc2)cc1	5
CCC(C)NC(=O)c1ccccc1SC (stereo not given)	-2
COc1ccc(CCN(Cc2cccs2)S(=O)(=O)c2ccc(S(=O)(=O)N3CCC(C)CC3)cc2)cc1OC	14
COc1cc(OC)c2c(c1)C(=O)OC2	12
COC(=O)c1ccc(Cl)c(NC(=O)c2cccc([N+](=O)[O-])c2C)c1	22
O=C(NCCc1ccccc1)C(=O)NCC1OCCN1S(=O)(=O)c1ccc([N+](=O)[O-])cc1 (stereo not given)	24
CC(C)(C)C1CCc2c(sc(NC(=O)c3ccco3)c2C(N)=O)C1 (stereo not given)	-8
Cc1ccc(S(=O)(=O)N2CCCC(C(=O)NNCC(=O)Nc3cc(F)ccc3F)C2)cc1 (stereo not given)	22
O=C(NCCc1ccccc1)/C(=C/c1ccco1)c1ccccc1	6
COC(=O)c1ccc(NC(=O)C(=O)c2cccn2C)cc1	9
CCOc1[nH]n(-c2ccccc2)c(=O)c1C=Nc1ccc(C)cc1	6
Fc1ccc(-n2c(-c3cccs3)nc3nc4ccccc4nc32)cc1	1
C/C=C/C=C\C(=O)Nc1cccc(C2=NOC3(C2)C[C@@H](C(N)=O)N(C(=O)/C(C)=C/C)C3)c1 (stereo not given in full)	3
Cc1cc(C)c(N(CC(=O)NC(C)(C)C)C(=O)CNC(=O)c2cccs2)c(C)c1	26
CCOC(=O)CNC(=O)CNC(=O)c1ccc(OC(C)C)cc1	-35
Cc1ccc(NC(=O)CSc2nnc(-c3ccncc3)n2C)cc1S(=O)(=O)N1CCOCC1	4
Cc1ccc(C(C#N)c2ccc(Cl)nn2)cc1 (stereo not given)	20
CCOc1ccccc1NC(=O)C(NCC1(N2CCCCC2)CCCCC1)c1ccccc1 (stereo not given)	13
COc1ccc2nc(NC(=O)c3ccc(-c4cccc([N+](=O)[O-])c4)o3)sc2c1	25
Cc1ccccc1Nc1nc(N)nc(COC(=O)c2ccc(O)cc2)n1	15
Cc1cccc(NC(=S)N(Cc2ccc(Cl)cc2)Cc2ccc(C(=O)O)cc2)c1	11

2 compounds picked at random from those above:
smiles	Biofilm kill mix
Fc1ccc(-n2c(-c3cccs3)nc3nc4ccccc4nc32)cc1	1
COc1ccc2nc(NC(=O)c3ccc(-c4cccc([N+](=O)[O-])c4)o3)sc2c1	25

The list continues.
smiles	Biofilm kill mix
Cc1cccc(-n2cnc3sc(C)c(C)c3c2=O)c1	18
O=C(Nc1nccs1)c1cc(-c2ccncc2)nc2ccccc12	14
CCc1cccc(NC(=O)NC(=O)Cn2nnc(C(=O)OC)c2C(=O)OC)c1	12
Cc1noc(NS(=O)(=O)c2ccc(N/C=C\C(=O)c3cccc4ccccc34)cc2)c1C	0
Cc1cccc(C)c1NC(=O)Nc1ccc2c(c1)OCO2	4
CC(C)(C)S(=O)(=O)c1ccc(S(=O)(=O)C(C)(C)C)s1	15
O=C(CCn1c2c(c3ccccc31)CCCC2)NNC(=O)c1ccccc1Cl	-4
CCC(Sc1nc2cc(OC)c(OC)cc2c(=O)n1CCc1ccc(S(N)(=O)=O)cc1)C(=O)NCCOC (stereo not given)	19
O=C(NNc1ccccc1Cl)C(O)(c1cccc(C(F)(F)F)c1)c1cccc(C(F)(F)F)c1	8
CC1=NN(C(=O)Cc2ccccc2)C(O)(c2ccccc2)C1 (stereo not given)	3
CCCCSc1n[nH]c(N)n1	16

These rows are one share of the data; count on the stated rates, not on these rows.
